Source: PubChem
StopGo RLuc: FMDV 2A StopGo reporter, Renilla signal; Potency, µM (titrated, usually from 57.5 µM), for inactives: at the highest dose signal change, negative = less light; hit rate 0.32% among 120,000; HEK cells with a luciferase reporter of 2A StopGo recoding; active means well fitted falling curve with a large enough effect; inconclusive means small, poorly fitted or top-dose-only effect; inactive means no such curve, though single readings can be large or run the other way; further: nearly all actives have a fitted effect of over 55% in size; overnight with compound
2A firefly: lowers the firefly signal of an FMDV 2A StopGo reporter; hit rate 0.23% among 120,000; Potency, µM (highest dose often 57.5 µM), for inactives: top-dose signal change, negative = less light; HEK cells with a luciferase reporter of 2A StopGo recoding; active = well fitted falling curve with a large enough effect; inconclusive = small, poorly fitted or top-dose-only effect; inactive = no such curve, though single readings can be large or run the other way; further: nearly all actives have a fitted effect of over 60% in size; overnight with compound
An asterisk follows results filed as active; ? = inconclusive; & = joins results of further samples; [ ] = remark or other dose. On the % scale 0 is the no-effect control and ±100 the full control effect; potency means the concentration at half of the fitted maximal effect.

1	CC(C)C12CN3CC(C(C)C)(CN(C1)C3c1ccccn1)C2=O (stereo not given)
2	COc1ccc(CCn2c(NC3CCCCC3)nc3c2c(=O)[nH]c(=O)n3C)cc1
3	Cc1ccc(C)c(CN2C(=O)c3ccccc3Sc3ccc(C(=O)NCc4ccco4)cc32)c1
4	Cc1ccc(/C=N\NC(=O)c2ccccn2)s1
5	O=C(COc1ccccc1)Nc1ccc(-c2nc3cc(Cl)ccc3o2)cc1
6	COc1ccc(C)cc1S(=O)(=O)N1CCN(c2ccc(C)cc2C)CC1
7	CCN(CC)C(=O)Cn1c(=O)n(-c2ccc(Cl)cc2)c(=O)c2c3c(sc21)CCCCC3
8	Cc1ccc(C(=O)CSc2nnc(-c3ccccc3)n2-c2ccccc2)cc1

Screen / compound no. | 1 | 2 | 3 | 4 | 5 | 6 | 7 | 8
StopGo RLuc | -6.4%&-0.4% | 21.6% | -16.2% | 16.8% | 2.4% | 42.2%[activator] | 14.3% | 0.1%
2A firefly | -0.7%&-5.9% | 0.0% | -5.0% | 28.1% | 81.0%[activator] | 21.2% | 11.6% | -6.4%

9	CCCCN(CC)C(=O)CSc1c2c(nc3ccc(Cl)cc13)CCCC2
10	O=C(NC1CCCCC1)c1nc(Cc2c[nH]c3ccccc23)no1
11	CC(C)C(=O)N1CCN(CCNc2cc(=O)oc3ccccc23)CC1
12	COC(=O)c1ccc(Cn2nnc3sc4c(c3c2=O)CCC(C)C4)cc1 (stereo not given)
13	CCN(Cc1ccc(Cl)s1)C(=O)CCl
14	O=S(Cc1ccc(Cl)cc1)Cc1cccc2ccccc12 (stereo not given)
15	CCN1CCN(C(C(=O)O)c2c[nH]c3cc(NC(=O)c4ccccc4)ccc23)CC1 (stereo not given)
16	CCOc1ccc(NC(=O)C(C)n2c(=O)cc(-c3ccccc3)c3c(C)nn(C)c32)cc1 (stereo not given)

Screen / compound no. | 9 | 10 | 11 | 12 | 13 | 14 | 15 | 16
StopGo RLuc | -15.8% | -1.3% | -14.8% | -4.3% | -1.4% | 37.8%[activator] | 0.7% | ?
2A firefly | ? | 12.1% | -9.7% | 51.4%[activator] | -12.4% | 18.5% | 12.6µM* | ?

17	CCCc1cc(=O)oc2cc(C)cc(OCC(=O)NC3CC3)c12
18	Cc1nc2cc(C(=O)Nc3cccc(N4CCCC4=O)c3)ccc2n1-c1ccccc1
19	CCOc1cccc(/C=C2\NC(=O)NC2=O)c1O
20	Fc1ccccc1-c1nnc(SCc2ccccc2)n1C1CC1
21	COc1ccccc1CNC(=O)Cn1ccc2ccc(Cl)cc21
22	COc1cccc(NC(=O)c2oc3ccccc3c2NC(=O)c2ccccc2C)c1
23	O=C(COC(=O)c1ccc(Cl)c([N+](=O)[O-])c1)c1ccc2c(c1)OCCO2
24	CCC(=O)Nc1ccc2oc(-c3ccc(C)c(Cl)c3)nc2c1

Screen / compound no. | 17 | 18 | 19 | 20 | 21 | 22 | 23 | 24
StopGo RLuc | 18.0% | 2.9% | 11.7% | 13.5% | 12.2% | -2.8% | -3.1% | 23.1%
2A firefly | 24.3% | 16.6% | 20.7% | 20.6% | 18.9% | -4.7% | 15.2% | 254.1%[activator]

25	Cc1ccccc1CC(=O)NCC1CCCO1 (stereo not given)
26	Cc1cc2c(cc1S(N)(=O)=O)S(=O)(=O)CCC2
27	COc1ccc(NCc2cc3cc4c(cc3n(CC(=O)Nc3ccc(C)cc3C)c2=O)OCO4)cc1
28	COCCNC(=O)C(=O)NCC(c1ccc2c(c1)OCO2)N1CCOCC1 (stereo not given)
29	COc1ccc(-c2c(C)oc3cc(OS(=O)(=O)c4ccc(C)cc4)ccc3c2=O)cc1
30	O=S(=O)(NCCc1cn2ccccc2n1)c1cc(Cl)ccc1Cl
31	COc1cccc(S(=O)(=O)Nc2c(NC3CCCC3)c3ccccc3oc2=O)c1
32	CCc1ccc(S(=O)(=O)Nc2cc3c(cc2N2CCOCC2)n(C)c(=O)c(=O)n3C)cc1

Screen / compound no. | 25 | 26 | 27 | 28 | 29 | 30 | 31 | 32
StopGo RLuc | 0.0% | -5.0% | 1.6% | -9.2% | 2.24µM* | 82.7%[activator] | 9.9% | 47.4%[activator]
2A firefly | 17.2% | 2.2% | 8.2% | 13.3% | 3.16µM* | 8.8% | 10.2% | 3.6%

Exported with bars between the fields: entries from further up.
item | compound | StopGo RLuc | 2A firefly
29 | COc1ccc(-c2c(C)oc3cc(OS(=O)(=O)c4ccc(C)cc4)ccc3c2=O)cc1 | 2.24µM* | 3.16µM*
30 | O=S(=O)(NCCc1cn2ccccc2n1)c1cc(Cl)ccc1Cl | 82.7%[activator] | 8.8%

(listing goes on)
33	CCCOc1ccc(-c2nonc2NC(=O)Cc2ccc(OC)cc2)cc1
34	Cc1cc(SCC(=O)NCc2ccc(F)cc2)nc(=O)[nH]1
35	CC(C)Cc1ccc(C(C)NC(=O)Cn2nc(-c3ccc(F)cc3)oc2=O)cc1 (stereo not given)
36	COc1ccc(NC(=O)C(NC(=O)C2CCC(C)CC2)C(C)C)cc1 (stereo not given)
37	CC1CCN(S(=O)(=O)c2ccc3c(c2)oc(=O)n3CC(=O)NCc2ccc(F)cc2)CC1
38	CCc1ccc(NC(=O)c2sc(-n3nc(C)c(Cc4ccc(OC)cc4)c3C)nc2C)cc1
39	COc1ccc(NC(=O)Cc2ccc(OC)c(OC)c2)cn1
40	CC(=O)c1c[nH]c(C(=O)NC(C)c2ccccc2Cl)c1 (stereo not given)

Screen / compound no. | 33 | 34 | 35 | 36 | 37 | 38 | 39 | 40
StopGo RLuc | 7.5% | -10.9% | -12.5% | -8.9% | ? | 2.7% | -3.0% | 0.0%
2A firefly | 15.4% | 0.0% | -11.5% | -2.0% | -74.0% | 25.5% | 5.8% | 0.0%

41	CCOC(=O)c1c(S(=O)(=O)N2CCCC(C(=O)Nc3cccc(CC)c3)C2)c(C)n(CC)c1C (stereo not given)
42	CC1CCC2(CCc3cc4c5c(c(=O)oc4cc3O2)CCC5)CC1 (stereo not given)
43	CCOC(=O)Nc1cccc(C#N)c1
44	O=C(Nc1cccc(C(=O)OCc2cc(=O)n3ccsc3n2)c1)c1ccc(F)cc1
45	N#C/C(=C/c1ccccc1)C(=O)c1c[nH]c2cc(F)ccc12
46	O=C(CCNc1ncnc2nc[nH]c12)NCCC1CCN(Cc2ccccc2)CC1
47	O=c1[nH]c(=O)n(CC2CCCO2)c2nccc(-c3ccc4ccccc4c3)c12 (stereo not given)
48	O=C(CN(c1cc(C(F)(F)F)ccc1Cl)S(=O)(=O)c1ccccc1)NCCc1ccccc1

Screen / compound no. | 41 | 42 | 43 | 44 | 45 | 46 | 47 | 48
StopGo RLuc | 0.0% | -2.6% | 6.9% | 16.5% | 0.3% | 4.7% | 5.2% | 158.4%[activator]
2A firefly | -12.4% | 24.3% | 11.6% | 38.5%[activator] | 79.4%[activator] | -9.9% | 9.8% | ?

49	CC(=O)c1ccccc1NCC(=O)Nc1ccccc1
50	COc1ccc(NS(=O)(=O)c2ccc(C)c(C(=O)N(C)Cc3ccc(C)cc3)c2)cc1
51	COc1cccc(CNC(=O)c2cccc(N3CCCS3(=O)=O)c2)c1
52	Cn1cnnc1Sc1nc2c(c(=O)n(C)c(=O)n2C)n1Cc1ccc(Br)cc1
53	CCOC(=O)c1ccc(NC(=O)CCS(=O)(=O)c2ccc3c(c2)CC(C)N3C(=O)CC)cc1 (stereo not given)
54	COC(=O)c1ccnc(/C=N/O)c1
55	CN1C(=O)Cc2cc(S(=O)(=O)N3CCN(c4ccccc4F)CC3)ccc21
56	COc1ccccc1N1CCN(C(=O)C2CCCN(S(=O)(=O)c3ccc4c(c3)CCCN4C(C)=O)C2)CC1 (stereo not given)

Screen / compound no. | 49 | 50 | 51 | 52 | 53 | 54 | 55 | 56
StopGo RLuc | -9.0% | 125.4%[activator] | 6.1% | -1.7% | -6.8% | -9.6% | 11.9% | 25.1µM*
2A firefly | 88.0%[activator] | -17.5% | 1.0% | 5.9% | -11.9% | -4.5% | -18.1% | ?

57	CC1=C(C(=O)Nc2ccc(C)cc2C)C(c2ccc(C(C)C)cc2)NC(=S)N1 (stereo not given)
58	Cc1ccccc1CCNC(=O)c1ccc2c(c1)CCCC2
59	CC(C)(C)C(=O)Nc1cc(-c2cccc(Br)c2)nn1-c1ccccc1
60	Cn1cc(C(=O)NCCCN2CCCCCC2=O)c2ccccc21
61	O=C(/C=C/c1cccc(F)c1)c1cc2ccccc2oc1=O
62	CCn1c(SCC(=O)Nc2cccc(C(F)(F)F)c2)nnc1-c1cc2ccccc2o1
63	CCOC(=O)c1c(NC(=O)Cc2coc3cc(C)cc(C)c23)sc2c1CCC2
64	CC(=O)c1ccc(NC(=O)c2cc(C)nc3c2c(C)nn3-c2ccc(C)cc2)cc1

Screen / compound no. | 57 | 58 | 59 | 60 | 61 | 62 | 63 | 64
StopGo RLuc | -10.3% | 39.7%[activator] | 31.3%[activator] | -17.6% | 20.7% | 17.9% | -4.7% | 1.1%
2A firefly | -24.9% | 4.7% | 7.8% | 21.1% | 14.9% | 0.0% | 10.9% | -17.7%

65	COc1ccc2oc(C(=O)OCC(=O)c3ccc4c(c3)OCO4)c(C)c2c1
66	NCC(=O)c1ccc(Cl)c(Cl)c1
67	Cc1ccc2onc(CNC(=O)N3CCN(c4cccc(C)c4C)CC3)c2c1
68	CCOc1ccc(-c2cnc(NCc3cccc(Cl)c3)n2C)cc1
69	CCOC(=O)c1c(C)oc2ncnc(Nc3ccc(OC)cc3OC)c12
70	O=C(Nc1ccccc1F)c1cc2cc(Br)ccc2oc1=O
71	COc1cccc(C2CC(=O)Nc3c2c(=O)nc2c(C)cccn32)c1 (stereo not given)
72	COc1cc(NC(=O)CCn2ccnc2)cc(OC)c1OC

Screen / compound no. | 65 | 66 | 67 | 68 | 69 | 70 | 71 | 72
StopGo RLuc | 17.0% | 1.5% | 50.9%[activator] | 5.1% | -7.5% | 1.7% | -22.2% | 8.1%
2A firefly | 15.2% | 0.0% | -13.1% | 5.6% | -17.5% | 14.0% | -30.5% | 2.4%

73	COc1ccc(N(CC(=O)Nc2c(C)n(C)n(-c3ccccc3)c2=O)S(C)(=O)=O)cc1Cl
74	Cc1ccc(C(c2sc3nc(-c4ccco4)nn3c2O)N2CCOCC2)cc1 (stereo not given)
75	COc1ccc(C)cc1NS(=O)(=O)c1ccc2c3c(cccc13)C(=O)N2
76	CNC(=O)c1c(NC(=O)c2cc(=O)c3ccccc3o2)sc2c1CCC2
77	O=C(CCSc1nnc(NC2CC2)s1)Nc1ccc(Br)cc1
78	COc1ccc(CCc2nnc(NC(=O)c3ccccc3)s2)cc1
79	O=C(NC1CCCC1)c1nc(-c2ccc3cc[nH]c3c2)no1
80	CCc1ccc(-n2c(=O)c3c(C)c(C(=O)N(C)C)sc3n(Cc3ccccc3C#N)c2=O)cc1

Screen / compound no. | 73 | 74 | 75 | 76 | 77 | 78 | 79 | 80
StopGo RLuc | -7.9% | 0.0% | 107.5%[activator] | -3.8% | 31.2%[activator] | -5.4% | 16.1% | -6.8%
2A firefly | -5.1% | -2.9% | ? | 18.1% | 15.0% | 14.0% | 200.3%[activator] | -23.0%

Six entries from above in another layout:
no.	smiles	StopGo RLuc	2A firefly
39	COc1ccc(NC(=O)Cc2ccc(OC)c(OC)c2)cn1	-3.0%	5.8%
40	CC(=O)c1c[nH]c(C(=O)NC(C)c2ccccc2Cl)c1 (stereo not given)	0.0%	0.0%
41	CCOC(=O)c1c(S(=O)(=O)N2CCCC(C(=O)Nc3cccc(CC)c3)C2)c(C)n(CC)c1C (stereo not given)	0.0%	-12.4%
42	CC1CCC2(CCc3cc4c5c(c(=O)oc4cc3O2)CCC5)CC1 (stereo not given)	-2.6%	24.3%
43	CCOC(=O)Nc1cccc(C#N)c1	6.9%	11.6%
44	O=C(Nc1cccc(C(=O)OCc2cc(=O)n3ccsc3n2)c1)c1ccc(F)cc1	16.5%	38.5%[activator]

The list goes on.
81	COCc1nnc(NC(=O)c2ccc3ccn(Cc4ccccc4)c3c2)s1
82	CCOc1cccc(CC(=O)N2CCc3c([nH]c4ccccc34)C2c2ccc(F)cc2)c1OCC (stereo not given)
83	CSc1ccc(/C=C/c2nc(N)nc(-c3ccccc3O)n2)cc1
84	CC(C)c1nc(N2CCN(C(=O)C(=O)NCCCO)CC2)c(C#N)c2c1CCCC2
85	CCN1C(=O)C(Cc2nc3ccccc3c(=O)n2-c2cccc(C)c2)c2ccccc21 (stereo not given)
86	Cn1c(COc2ccc(Cl)cc2)nnc1SCC(O)COc1ccc(C(C)(C)C)cc1 (stereo not given)
87	Cc1ccc(CNc2oc(COc3ccccc3F)nc2C#N)cc1
88	O=C(NCc1coc(-c2cccs2)n1)C1(c2ccc(Cl)cc2)CC1
89	Cc1ccc(SC(C)C(=O)NC2CCCC2)cc1C (stereo not given)

Screen / compound no. | 81 | 82 | 83 | 84 | 85 | 86 | 87 | 88 | 89
StopGo RLuc | -0.2% | -7.8% | -1.3% | 22.2% | 62.6%[activator] | -18.5% | 25.7% | -1.9% | -11.1%[1.06 µM]
2A firefly | 18.7% | -27.6% | 32.0%[activator] | 4.4% | 3.3% | 1.9% | 30.5% | 6.7% | 5.9%
